Bfl-1 A1 inh = inhibitors of the anti-apoptotic protein A1, read as caspase activation | MEF A1-2A-BIM cells, Caspase-Glo 3/7 luminescence, 3 h; percent of clofoctol response, vehicle zero | 330,000 tested, 0.066% active | AID 2462 | caspase activation, % (test concentration not listed);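 active = over half of replicate activation scores above 10%, or exactly half above 10 with the replicate mean above 10; inconclusive = replicate mean below 10 yet half the replicates above 10; inactive = over half of replicates below 10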;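 note: wells of about 30 µL received 50 nL stock; many hits fall short of the cut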
Calb FLC = affects C. albicans growth with fluconazole. C. albicans CaCi-2 (fluconazole-resistant clinical isolate) + fluconazole, Alamar Blue growth, 48 h. growth inhibition, % (test concentration not listed). 300,000 tested, 0.57% active;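 active = most replicates above 75%; inconclusive = exactly half above 75%; inactive = most below 75%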;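 note: all wells also contain fluconazole at 8 µg/ml as a sub-toxic cotreatment; 0% = median of DMSO wells and 100% = median of geldanamycin control wells; wells of about 8 µL received 7.5 nL stock; the first replicate is given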
RanGTP-Impb inh = disruptors of Ran-importin-beta complex formation – biochemical, FRET, CFP-Ran, YFP-importin-beta, homogeneous, primary screen | AID 2216 | inhibition, % (concentration not given with the values) | cell-free CFP-Ran/YFP-importin-beta FRET ratio | 300,000 tested, 1.1% active;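 active = most replicates above 15%; inconclusive = exactly half above 15%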;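 note: 0% = DMSO wells and 100% = Ran loaded with GDP instead of GTP; wells of about 40 µL received 100 nL stock; the first replicate is given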
Beta cell apopt = blocks beta cell apoptosis | 300,000 tested, 0.8% active | INS-1E cytokine-induced death, ATP luminescence, 48 h; percent of positive-control rescue, neutral wells zero | protection from apoptosis, % (test concentration not listed) | AID 435005;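 active = all replicates at 75% or more, or half of them and the mean; inconclusive = half reach 75% but not the mean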;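 note: 0% = cytokine-treated negative control wells and 100% = positive control rescue; higher means more ATP so stronger rescue from cytokine killing; wells of about 40 µL received 100 nL stock; the first replicate is given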
T cruzi inh = T. cruzi replication inhibition. T. cruzi beta-gal in NIH3T3, luminescence, 90 h. inhibition, % (concentration not given with the values). 300,000 tested, 1.4% active. AID 1885;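 active = mean inhibition across valid replicates above about 55%, limit read from the data; inconclusive = mean below that limit but half or more replicates reach it; inactive = mean below it, under half of replicates reach it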;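 note: signal also drops with host cell toxicity which is not excluded here; 0% = plate median of DMSO wells and 100% = zero luminescence signal; higher percent means less beta-gal luminescence so fewer parasites; stock transfer was 50 nL into about 50 µL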
LANA-H2B inh = blocks KSHV LANA binding to histone H2A/H2B; Q9QR71; cell-free LANA-H2A/H2B peptide, fluorescence polarization; inhibition, % (test concentration not listed); 320,000 tested, 0.6% active; AID 2629; in the data active = inhibition mostly above about 10%, no sharp cut-off; inactive = mostly below about 6.7%;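 note: stock transfer was 7.5 nL into about 10 µL; 0% = median of vehicle wells and 100% = median of positive control wells; one replicate is shown; the record names a cut of 25% in any replicate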
Vif TR-FRET = inhibitors of Vif binding to APOBEC3G peptide, primary screen, biochemical, TR-FRET, GST-Vif 1-94, biotin-A3G peptide, dose response retest (AID 1117319); TR-FRET GST-Vif / biotin-A3G peptide binding; higher % means a stronger effect; test concentration not given here; strong numbers were not always called active; inhibition, %; hits with a dose series show IC50 in µM; 260,000 tested, 0.57% active;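 active = above the screen mean plus three standard deviations and confirmed in dose response; inconclusive = results disagree or hit not tested in dose response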;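 note: Vif residues 1-94 fused to GST binding biotinylated APOBEC3G peptide 110-148; 0% = full assay without inhibitor and 100% = GST in place of GST-Vif; retest series ran down from 100 µM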
AF4-AF9 inh = MLL-AF4/AF9 protein interaction inhibition; P42568; AlphaScreen, biotin-AF4 peptide binding to FLAG-AF9; inhibition, % at 10 µM; 350,000 tested, 0.47% active;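 active = every replicate reaching a set inhibition limit, whatever the replicate mean, cut at about 25% in these data; inconclusive = mean inhibition reaches that limit but some replicates miss it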;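 note: 0% = plate neutral control median and 100% = total signal loss; the record names both 10 and 1 µM as test concentration; the first replicate is given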
Target sequence (P42568 whole entry, looked up): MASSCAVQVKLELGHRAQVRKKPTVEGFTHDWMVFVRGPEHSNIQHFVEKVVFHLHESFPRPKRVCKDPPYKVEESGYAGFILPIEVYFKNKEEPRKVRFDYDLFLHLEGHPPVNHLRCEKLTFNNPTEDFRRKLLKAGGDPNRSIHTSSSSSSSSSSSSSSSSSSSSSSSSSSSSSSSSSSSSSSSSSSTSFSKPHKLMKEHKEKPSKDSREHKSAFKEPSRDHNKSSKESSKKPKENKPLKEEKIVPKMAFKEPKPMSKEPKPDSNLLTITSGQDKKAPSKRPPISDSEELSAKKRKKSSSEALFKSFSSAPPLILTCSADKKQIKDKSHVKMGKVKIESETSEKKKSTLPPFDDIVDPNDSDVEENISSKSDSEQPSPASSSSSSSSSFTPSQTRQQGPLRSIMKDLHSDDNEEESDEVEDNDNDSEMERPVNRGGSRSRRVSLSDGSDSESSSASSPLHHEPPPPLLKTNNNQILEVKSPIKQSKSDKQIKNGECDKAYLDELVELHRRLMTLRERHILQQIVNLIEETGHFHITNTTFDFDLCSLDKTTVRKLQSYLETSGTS
Numbers without * were called inactive; ? = inconclusive; / = not tested or not shown; & = joins results of further samples.

nr	Compound	Bfl-1 A1 inh	Calb FLC	RanGTP-Impb inh	Beta cell apopt	T cruzi inh	LANA-H2B inh	Vif TR-FRET	AF4-AF9 inh
1	CC1=CC2=NC(=O)CC(C)(C(=O)N(CC(=O)NC3CCCC3)Cc3ccccc3)N2C=C1 (stereo not drawn)	0.3	-9	?	-2	-11	5.4	/	-0.8
2	O=C(COC(=O)CCC(=O)c1cccs1)NC(=O)c1ccc(OC(F)F)cc1	1.4	3	6.5	-8	-8	3.5	1%	-4.8
3	CC(=O)N1CCc2cc(S(=O)(=O)CCC(=O)N3CCN(c4ccccc4F)CC3)ccc21	0.7	-4	2.9	2	-5	-5.5	/	-2.9
4	O=C(c1cc(N2CCCCC2)nc2ccccc12)N1CCOCC1	-1.0	-8	-2.8	/	-5	-0.5	11%	/
5	Cc1ccc(NC(=O)CSc2nnc(-c3cccs3)o2)cc1S(=O)(=O)N(C)C	1.9	-4	1.9	4	-2	7.9	-9%	/
6	CN(C(=O)CN(C)S(=O)(=O)c1ccc(F)cc1)c1c(N)n(Cc2ccccc2)c(=O)[nH]c1=O	1.0	25	1.4	-4	-8	-1.9	7%	-9.7
7	Cc1cc2cc(CNC(=O)c3ccc(Br)o3)ccc2n1C	0.3	-4	?	-11	32	6.4	/	-1.9
8	CN(C)/N=C1\C(=O)N(CN2CCN(c3ccccc3)CC2)c2ccccc21	1.1	/	/	-4	/	-1.5	-5%	14
9	COCC1CCCCC1OS(N)(=O)=O (stereo not drawn)	1.0	28	0.4	-4	13	-1.4	/	-1.8
10	O=C(C1=C[C@H](c2ccc(C(F)(F)F)cc2)C[C@H](OCCCCO)O1)N1CCN(Cc2ccccc2)CC1	0.8	-4	-0.2	-1	48	-2.3	2%	-6.8&1.5
11	N#CCCNS(=O)(=O)c1ccc(C(=O)OCC(=O)Nc2ccc3c(c2)OCO3)cc1	-0.5	/	/	-1	/	-3.9	3%	7.7
12	CC(=O)Nc1c(Cl)n(C(C)=O)c2ccccc12	1.2	-7	2.4	-3	-15	-3.1	4%	/
13	O=C(Nc1ccc(Br)cc1)c1ccc(Br)c(S(=O)(=O)Nc2cccnc2)c1	1.5	7	-0.5	7	-3	-2.3	/	/
14	OCCC1CN(Cc2nc3ccccc3s2)CCN1CCc1ccccc1 (stereo not drawn)	1.0	-10	5.5	-5	27	5.5	-2%	3.0
15	CCOc1ccccc1Nc1nc(N2CCCC2)nc(N2CCOCC2)n1	0.6	2	-5.2	-2	-4	0.7	/	-4.6
16	Cc1nn(CCOc2ccccc2)c(=O)n1-c1ccccc1F	/	-1	?	-6	-29	8.2	12%	/
17	Nc1nc(NCC2CCCO2)nc(Nc2ccccc2)c1[N+](=O)[O-] (stereo not drawn)	-0.5	27	-1.1	-6	-9	4.5	4%	3.3
18	COc1cc(/C=C(\CCC(=O)O)c2nc3ccccc3s2)ccc1OCC(=O)Nc1c(Cl)cccc1Cl	-0.4	/	/	-5	/	1.4	/	1.8
19	CCN(CC)Cc1c(O)c(Cl)cc2c(C)cc(=O)oc12	/	2	13	/	-4	/	/	0.2
20	COC(=O)c1sccc1NC(=O)CSc1ccc(Cl)cc1	0.8	-1	-1.1	-6	-11	1.2	-4%	/
21	CC(=O)NC(c1ccccc1)c1cc([N+](=O)[O-])c2cccnc2c1O (stereo not drawn)	0.6	6	-0.9	37	31	3.3	?	1.3
22	COCCNC(=O)c1onc(CSc2ccc(F)cc2)c1C(=O)NCCOC	-0.2	1	?	0	-9	-3.4	-8%	/
23	O=c1c2c3c(sc2[nH]c(=S)n1Cc1ccco1)CCC3	-0.4	-6	2.3	-16	-27	-0.3	?	4.4
24	COc1cc(Cl)ccc1OCc1cc(C(=O)N2C[C@]3(C)C[C@H]2CC(C)(C)C3)no1	-0.9	-4	1.0	-5	24	-0.9	/	0.1
25	CCc1ccc(-c2nc(SCC(=O)N(C)C3CCS(=O)(=O)C3)n[nH]2)cc1 (stereo not drawn)	0.6	-6	/	3	-4	0.3	3%	0.7
26	Clc1ccc(/C=C/c2nc3ccccc3[nH]2)c(Cl)c1	1.9	55	2.1	45	58*	1.0	14%	/
27	Cn1c(Cn2c(=O)sc3ccccc32)nnc1SCC(=O)Nc1cccc(Cl)c1	0.2	/	/	-4	/	2.3	8%	-2.4
28	Cc1nc(CS(=O)(=O)c2ccccc2)cc(Sc2ccc(Cl)cc2Cl)n1	-0.4	-15	-3.1	/	8	2.7	27%	/
29	O=C(CSc1nn(-c2ccc(Cl)cc2)c(=S)s1)N1CCN(C(=O)c2ccco2)CC1	-0.5	11	3.7	4	-13	1.7	2%&2%	/
30	COc1ccc(-c2cc(C)no2)cc1S(=O)(=O)NCc1ccc(OC(C)C)cc1	0.3	10	-0.5	-4	1	0.3	/	-0.3
31	Cc1c(-c2ccccc2)c(P(=O)(N2CCOCC2)N2CCOCC2)c2ccccn12	-0.6	-11	4.1	10	10	4.7	13%	5.6
32	CC(C)NC(=O)c1cc2nc(-c3ccco3)cc(C(F)(F)F)n2n1	0.5	5	4.4	/	9	-7.0	15%	-3.0
33	NNC(=O)c1cc(C23CC4CC(CC(C4)C2)C3)nc2ccccc12	0.5	1	-0.3	8	9	-0.1	/	-9.7
34	CO/N=C/NC(=O)c1c(OC)ccnc1Oc1cccc(C(F)(F)F)c1	0.6	-2	-3.2	2	-11	-0.8	-4%	/
35	CSCCC(NC(=O)/C(=C/c1ccc(F)cc1)NC(C)=O)C(=O)O (stereo not drawn)	1.5	19	1.8	-6	-6	3.6	-4%	-0.3
36	Cc1ccccc1C(=O)NC1CCCCCCC1	-2.6	-3	3.6	-5	0	-4.4	-21%	-22
37	CNC[C@@H]1Oc2c(NS(C)(=O)=O)cccc2C(=O)N([C@@H](C)CO)C[C@H]1C	0.0	/	/	5	/	-1.5	/	-2.6&-5.3
38	Cc1cccc(OCC(O)CN2CCN(CCN3C(=O)c4cccc5cccc(c45)C3=O)CC2)c1C (stereo not drawn)	1.0	42	-1.4	8	67*	-4.2	29%	17
39	CN(C)c1cc2c(cc1NS(=O)(=O)c1ccccc1)n(C)c(=O)n2C	-0.6	-4	3.5	-3	-11	-1.7	/	-1.3
40	COc1ccc(CCNc2nc(C)nc3c2nnn3Cc2ccccc2)cc1OC	-0.4	17	1.8	9	9	-6.0	/	1.8
41	Cc1ccc(-n2c(Cc3cccn3C)nnc2SCC(=O)N2CCN(c3ccccc3)CC2)cc1	0.6	7	2.2	0	6	0.4	2%&2%	/
42	CC(=O)Cn1ncc(N2CCOCC2)c(Br)c1=O	0.8	-1	2.0	-1	-4	1.9	/	-1.2
43	COc1ccc(/C=N/NC(=O)CC2N=C(Cc3ccccc3)NNC2=O)cc1OC (stereo not drawn)	0.9	?	0.2	2	-4	-5.9	-4%	-1.1
44	O=C(O)CC(NC(=O)C1CCCCC1)c1cc([N+](=O)[O-])ccc1Cl (stereo not drawn)	1.0	-2	-1.8	-2	2	-1.4	-6%	1.6
45	CCS(=O)(=O)c1ccc(O)c(NC(=O)NC2CCCCC2)c1	0.7	1	-1.5	1	-8	1.3	14%	3.5
46	O=C(CSC1=NCCS1)Nc1ccc2ccccc2c1	-0.6	2	-1.2	2	-16	-3.7	8%	-2.7
47	Cc1nn(C)cc1C1Nc2ccccc2C(=O)N1O (stereo not drawn)	-0.4	-8	-1.3	7	4	1.5	12%	/
48	c1ccc(-n2ncc(-c3nn[nH]n3)n2)cc1	-0.6	-3	-0.1	-4	-6	7.6	21%	/
49	Cc1ccc(NC(=O)CCCNC(=O)c2ccc(Cl)cc2)nc1	0.7	28	1.3	-5	-9	2.0	/	-0.9
50	COc1cccc(NC(=O)CSc2nnc(NC(=O)C3CC3)s2)c1	-0.2	1	0.1	-3	-3	-0.1	/	4.3
51	Cc1ccc(/C=C/c2ccc(=O)n(Cc3ccccc3Cl)n2)cc1	2.1	23	6.2	1	28	-1.6	10%	/
52	Clc1ccc(Cn2cnc3ccccc32)cc1	0.2	0	0.6	0	12	-0.4	1%	1.5
53	O=c1/c(=C\c2cccnc2)sc2nc3ccccc3n12	/	-1	0.0	/	-4	/	21%	8.7
54	Clc1ccc(-c2nc(/C=N/N3CCOCC3)c3ccccn23)cc1	-0.6	12	?	10	6	4.2	?	/
55	COc1ccc(C(CNC(=O)c2cccc(S(=O)(=O)Nc3cccc(C)c3)c2)N2CCOCC2)cc1 (stereo not drawn)	0.4	-2	3.0	4	1	-3.8	/	0.1
56	COc1ccc(C(=O)N2CCC(C(=O)Nc3ccccc3C)CC2)cc1OC	1.6	-17	-3.7	-2	0	-9.3	/	-4.1
57	COc1ccc(C(=O)Nc2cc(C(C)=O)c(C)oc2=O)cc1	-0.9	0	0.1	/	-37	0.3	-12%	-1.3
58	O=C1CCC(C(=O)O)(c2ccccc2)C1 (stereo not drawn)	0.4	9	-2.7	-6	-1	-11	?	/
59	Cc1ccc(/C=N/NC(=O)c2cc3c(ccc4ccccc43)o2)cc1[N+](=O)[O-]	0.6	-5	1.7	-5	1	2.3	?	/
60	COc1ccc(/C=C2\Sc3ccc(C(=O)N4CCCC4)cc3N(C)C2=O)cc1OC	-0.7	0	-0.6	5	6	-1.0	/	/

More entries follow:
nr	Compound	Bfl-1 A1 inh	Calb FLC	RanGTP-Impb inh	Beta cell apopt	T cruzi inh	LANA-H2B inh	Vif TR-FRET	AF4-AF9 inh
61	O=C(/C=C/c1ccc([N+](=O)[O-])cc1)OCC(=O)N1c2ccccc2Sc2ccccc21	0.1	16	-0.1	1	12	-2.0	14%	3.4
62	O=C(NC(=S)NCc1cccnc1)c1cc2ccccc2o1	?	7	-1.8	-12	-5	5.5	-10%	-3.8
63	CC(=O)N1CCN(Cc2nc3cc(NC(=O)c4ccc(F)cc4)ccc3n2C)CC1	-1.8	-23	0.7	-3	3	-0.6	/	-0.3
64	COc1ccc(OCC(=O)Nc2ccc3c(c2)nc(CN2CCCC2)n3C)cc1	-0.1	6	2.8	3	3	/	1%	/
65	CSc1ccc(C(=O)C2CCCN(C(=O)CN3CCOC3=O)C2)cc1 (stereo not drawn)	2.0	13	1.2	-1	7	-13	/	0.9
66	COc1cc(NC(=O)CSc2nncn2C)c(C)cc1[N+](=O)[O-]	-0.2	9	3.9	-4	0	0.2	-3%	-0.6
67	O=C(NNC(=O)c1cccc(-n2cccc2)c1)c1ccccc1	-1.8	/	/	0	/	-6.5	7%	1.1
68	Cn1c(CNS(=O)(=O)c2ccc(F)cc2)n[nH]c1=S	-0.6	-5	-0.8	4	-4	-6.1	5%	/
69	O=C(Nc1ncc(Cc2ccccc2)s1)C1COc2ccccc2O1 (stereo not drawn)	0.3	0	-3.9	-5	7	2.4	8%	/
70	COc1ccccc1NC(=O)C(C)n1cnc2c(oc3nc4c(cc32)CCCC4)c1=O (stereo not drawn)	-1.0	1	2.3	8	8	4.9	4%	-3.4
71	CC(C)CC(=O)Nc1cccc(C(C)O)c1 (stereo not drawn)	-0.5	2	?	2	-7	-7.4	/	-2.3
72	Cc1ccc(NC(=O)CN2C(=O)N/C(=C\c3cccn3-c3cccc(C(=O)O)c3)C2=O)cc1	/	-4	-3.1	/	-26	/	-1%	/

Compound activity as filed in PubChem BioAssay.
